# Screens from PubChem.
# Mtb H37Rv: M. tuberculosis H37Rv growth inhibitors, H37Rv strain (AID 1626) | M. tuberculosis H37Rv growth inhibition; higher % means a stronger effect | inhibition, % at 10 µM, or IC50 in µM where a hit was titrated | 220,000 compounds, 0.95% hits;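 active means confirmed in a dose series; inconclusive means inhibition above 80% but not taken into the dose series; inactive means below 80% or under 30% at every dose of the series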;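 further: bacteria incubated seven days before Alamar blue readout; 0% = bacteria only wells and 100% = bacteria with antibiotic wells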
# Arbovirus anti: antivirals against arbovirus infection, primary screen, cell-based, full library, 10K replicate subset; arbovirus infection cell-based antiviral screen; inhibition, % at 10 µM; 200,000 compounds, 0.37% hits;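 active means inhibition from about 30%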;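 further: bluetongue infection of BSR cells; cell survival read as ATP light after 72 h; 0% = infected wells without compound and 100% = uninfected wells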
# YopH PTP inh: YopH tyrosine phosphatase inhibitors, primary screen, biochemical, fluorescence Ex485/Em525. inhibition, %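 (about 10 µM by stock and volumes)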. AID 898, 2007. 140,000 compounds, 0.16% hits. YopH tyrosine phosphatase [Yersinia enterocolitica];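 active means inhibition of 50% or more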;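 further: controls were vehicle for no effect and minimum signal wells for full effect; inactives centre near -20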
# RecA intein inh: Mtb RecA intein splicing inhibitors, primary screen, biochemical, fluorescence, HTS | Protein RecA (Mycobacterium tuberculosis (strain ATCC 25618 / H37Rv)), P9WHJ3 | cell-free RecA intein splicing | inhibition, %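 (about 9 µM by stock and volumes)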 | 290,000 compounds, 0.75% hits; in the data active means inhibition above about 30%; inconclusive means no clear call, values can overlap the other calls;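 further: 0% = vehicle wells and 100% = reference inhibitor control wells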
# Target sequence (P9WHJ3 whole entry, looked up): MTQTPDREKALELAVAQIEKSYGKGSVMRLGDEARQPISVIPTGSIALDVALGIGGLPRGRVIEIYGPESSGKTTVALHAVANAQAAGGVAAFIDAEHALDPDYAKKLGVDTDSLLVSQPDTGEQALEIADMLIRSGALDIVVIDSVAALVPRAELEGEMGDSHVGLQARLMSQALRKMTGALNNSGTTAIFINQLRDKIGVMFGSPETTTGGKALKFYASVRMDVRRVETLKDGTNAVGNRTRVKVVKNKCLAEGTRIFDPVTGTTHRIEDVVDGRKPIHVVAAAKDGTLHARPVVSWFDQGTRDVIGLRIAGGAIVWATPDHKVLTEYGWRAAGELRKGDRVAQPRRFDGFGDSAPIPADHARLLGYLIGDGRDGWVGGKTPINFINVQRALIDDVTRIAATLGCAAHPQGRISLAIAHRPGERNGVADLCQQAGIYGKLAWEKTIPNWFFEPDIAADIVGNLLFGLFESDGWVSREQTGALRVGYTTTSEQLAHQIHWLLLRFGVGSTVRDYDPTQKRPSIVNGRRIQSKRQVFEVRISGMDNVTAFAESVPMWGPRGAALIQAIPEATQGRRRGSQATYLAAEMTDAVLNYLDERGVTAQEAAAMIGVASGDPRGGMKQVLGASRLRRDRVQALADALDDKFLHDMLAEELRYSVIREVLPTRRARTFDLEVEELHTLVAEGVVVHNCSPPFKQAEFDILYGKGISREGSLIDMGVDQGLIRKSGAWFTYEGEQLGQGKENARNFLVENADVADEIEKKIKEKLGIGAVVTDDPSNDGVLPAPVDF
# Mtb bLac sens: beta-lactam sensitization of Mtb H37Rv, H37Rv; 330,000 compounds, 0.27% hits; AID 434955, 2010; M. tuberculosis H37Rv growth with meropenem, percent inhibition; hits of this screen are not shown here; inhibition, % at 25 µM;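 active means about 74% or more and at least 40 points above the plate without the antibiotic, then above 30% in a dose series; inconclusive means first-round hits that could not be retested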;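 further: growth measured after seven days incubation then overnight dye step; 0% = bacteria only wells and 100% = bacteria with antibiotic; twin plates without the antibiotic show which effects depend on it; some results filed as inactive read as strong as hits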
# Arbovirus anti repeat: recorded beside Arbovirus anti, whose call it bears; inhibition, %; measured here: 10K subset replicate screen; many hits read low in the repeat;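 first of two repeat runs on a subset; 0% = infected and 100% = uninfected wells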
# Starred values were filed as active, the others as inactive; ? = inconclusive; . = no result given. An excerpt; count on the stated rates, not on these rows.
SMILES,Mtb H37Rv,Arbovirus anti,YopH PTP inh,RecA intein inh,Mtb bLac sens,others
COc1ccccc1-c1nnc2sc(COc3ccc(Cl)cc3)nn12,.,-11,-32,-0.5,47,
O=C(NCCCc1ccccc1)c1ccncc1,-3%,6,-18,-2.3,0,Arbovirus anti repeat=2
COc1ccccc1Cn1c(=S)[nH]c2ccc(Br)cc2c1=O,.,.,.,-5.4,-4,
C/C(N)=C(/C#N)C(=O)CSc1nc2cc(Cl)ccc2c(=O)n1Cc1ccco1,1%,3,.,5.0,2,
CCc1c(C)[nH]c(=S)c(C#N)c1C,-8%,3,-33,-0.3,-6,
CCOc1ccc2nc(-c3ccccc3)nc(SCC(=O)OC)c2c1,.,.,.,-2.9,1,
Cc1coc2c1c(C)cc1oc(=O)c(CC(=O)NCC(=O)NCC(=O)O)c(C)c12,.,.,.,-0.3,4,
Nc1nc(Nc2ccccc2F)nc(NCc2ccco2)c1[N+](=O)[O-],-1%,.,.,0.0,2,
CCOC(=O)C1(CCCc2ccccc2)CCN(C(=O)CCC2=NNC(=O)CC2)CC1,-4%,0,.,12,-3,
Cc1cc2nc(-c3ccc4c(c3)CCC4)ccn2n1,4%,-3,.,-2.7,0,
Cc1nc(S(=O)(=O)Cc2ccc(Cl)cc2)nc2c1CCC2,2%,4,.,-1.9,-6,
Cc1c2cnn(-c3ccccc3)c(=O)c2c(C)n1CCCC(=O)N1CCN(c2ncccn2)CC1,5%,13,-29,.,.,
COc1ccc(O[C@@H]2O[C@H](COC(C)=O)[C@@H](OC(C)=O)[C@H](OC(C)=O)[C@H]2NC(C)=O)cc1,-5%,2,-32,0.1,-6,
Cc1ccc(-n2cccc2C(=O)NS(=O)(=O)c2ccc(C)cc2)cc1,-6%,.,.,0.4,-3,
Cc1c(NC(=O)C(C)NCC2CCCO2)c(=O)n(-c2ccccc2)n1C (stereo not given),-5%,1,-3,0.3,-10,
NC(=O)CC(NC(=O)c1ccccc1)C(=O)O (stereo not given),-12%,.,.,-0.6,-5,
COc1ccc(CNC(=O)CSc2nnc(C)s2)cc1,-4%,0,-13,-0.1,-1,
COc1cc(C(=O)N2CCC(NC(=O)C(Cc3ccccc3C)NC(C)=O)CC2)cc(OC)c1OC (stereo not given),-12%,2,-47,0.6,0,
CCC1CCCCN1CCCNC(=O)c1ccc(N2CCOCC2)c(NS(=O)(=O)c2ccc(OC)cc2)c1 (stereo not given),-1%,8,.,1.6,-3,
O=C(CCNc1cccc(F)c1)c1cccc([N+](=O)[O-])c1,5%,4,.,32*,33,
S=C(NCc1ccc2[nH]c3c(c2c1)CCCC3)Nc1ccccc1,13%,-30,-32,-0.6,4,
CCOC(=O)CNC(=O)CSc1nc2cccnc2n1C1CCCCC1,-7%,-3,-20,3.5,78,
NC(=O)Cn1cnc(-c2ccccc2)c1,6%,0,-34,-1.4,-11,
COc1ccc(-c2noc3c2-c2nc(-c4ccccc4)sc2CC3)cc1,-6%,.,.,-0.3,0,
Cc1cc(C)cc(N(C(C)C(=O)NCCC2=CCCCC2)S(C)(=O)=O)c1 (stereo not given),-5%,4,-9,0.1,-1,
CCN(CC)S(=O)(=O)c1ccc(C(=O)NCc2n[nH]c(=S)n2-c2ccccc2OC)cc1,-2%,8,-9,0.1,1,
Cc1ccc(CCN2CC(C(=O)O)CC2=O)cc1 (stereo not given),2%,14,-2,2.1,2,
Clc1ccc(Cn2ncc3c(N4CCOCC4)ncnc32)cc1,3%,3,-5,0.6,-13,
CCN(CC(=O)NCc1cccs1)C(=O)c1cccc(S(=O)(=O)NCc2ccccc2)c1,.,.,.,1.0,-1,
COc1ccc(/C=C2\SC(=O)N(CCNC(=O)CCS(=O)(=O)c3ccc(C)cc3)C2=O)cc1,4%,-3,-27,1.4,2,
Cc1cc2c(=O)n(C)c(SCC(=O)Nc3ccccc3C)nc2s1,.,.,.,-2.5,-2,
CCOc1ccccc1-n1nnnc1SCC(=O)NC(=O)Nc1ccc2c(c1)OCCO2,4%,-5,13,-4.4,-2,
Fc1ccccc1CSc1nc2ncccc2[nH]1,-9%,0,-8,-1.4,-1,
CC(Oc1cc2oc(=O)c3c(c2cc1Cl)CCC3)C(=O)NC1CC(C)(C)NC(C)(C)C1 (stereo not given),.,.,.,1.7,-16,
COc1ccc(NC(=O)N/C=C/c2ccc(Cl)cc2)cc1,-3%,3,.,-3.1,-4,
CC1(NC(=S)NCCO)CCS(=O)(=O)C1 (stereo not given),-5%,-6,-33,-2.4,-2,
COc1ccc(C)cc1-n1nnnc1SC/C(O)=C(\C#N)c1nc2ccccc2[nH]1,3%,-3,-25,.,-1,
Cc1ccc(NC(=O)CCS(=O)(=O)c2cccc3nonc23)c(Cl)c1,.,.,.,7.6,0,
COc1cc(/C=N\Nc2cc(=O)n(C)c(=O)n2C)ccc1O,1%,-4,-19,-7.9,-2,
O=C(NC(=S)N1CCc2ccccc21)c1ccc(Br)o1,?,-6,.,13,95,
CCCc1nnc(SCC(=O)N(CC)CC)n1CC1CCCO1 (stereo not given),-3%,5,.,-0.7,2,
O=S(=O)(c1ccc(Br)s1)N1CCN(c2ccc(F)cc2)CC1,.,.,.,0.5,2,
CN(c1ccc(OCC(=O)OCC(=O)c2c(N)n(C)c(=O)n(C)c2=O)cc1)S(=O)(=O)c1ccc2ccccc2c1,3%,3,.,6.3,.,
O=C(CNC(=O)c1ccco1)OCC(=O)c1ccc(Cl)cc1Cl,2%,4,.,1.1,0,
O=[N+]([O-])c1ccc(N2CCCCC2)cc1N1CCOCC1,.,3,-10,3.1,1,
Cc1ccc(C)c(Cn2nnc3c(=O)[nH]c(C(=O)Nc4ccc(F)cc4)nc32)c1,-6%,40*,.,1.6,15,
CC(C)C(=O)N1CCC2(CC1)Oc1ccc(Cl)cc1C(=O)C21CC(c2ccccc2)=NO1 (stereo not given),72%,.,.,14,98,
Fc1ccccc1Cn1cc(C(=S)N2CCOCC2)c2ccccc21,3%,.,.,3.5,-6,
O=C(Cn1ccc2ccccc2c1=O)NCCC(=O)Nc1cccc(Cl)c1,.,.,.,-2.6,5,
COc1ccc(/C=C/c2nc3sc4c(c3c(=O)o2)CCC4)cc1,-8%,.,-7,-1.3,98,

# (cont.)
SMILES,Mtb H37Rv,Arbovirus anti,YopH PTP inh,RecA intein inh,Mtb bLac sens,others
COC(=O)c1cccc(Nc2ccc([N+](=O)[O-])cn2)c1,-5%,-2,.,-1.1,6,
CN(C)/C=N/C1=C(C#N)C(c2cccs2)c2ccc3ccccc3c2O1 (stereo not given),-3%,-12,.,.,.,
Cc1cccc(N2CCN(C(=O)CCCOc3ccccc3)CC2)c1C,0%,9,-15,12,15,
CC(=O)c1cc(C)ccc1OC(=O)c1ccco1,-5%,12,-63,-1.1,5,
CC(Sc1nnnn1-c1ccccc1)C(=O)Nc1ccc(Cl)cn1 (stereo not given),-8%,-10,4,7.0,99,
CC(C(=O)NC1CCCCC1)N1C(=O)C2C3C=CC(C3)C2C1=O (stereo not given),.,.,.,-1.1,-12,
N=C(c1ccc([N+](=O)[O-])cc1)N1CCCCC1,9%,-1,.,-3.3,6,
COc1ccc(C(C)=O)cc1COC(=O)c1cc(C)nc2ccccc12,-10%,1,.,-0.8,0,
CC(C)Nc1ncnc2c1cnn2-c1ccc(Cl)cc1,23%,-3,-1,0.2,8,Arbovirus anti repeat=1
COc1ccc(OC)c(CN2CCN(c3ccccc3OC)CC2)c1,.,1,-21,-1.1,5,Arbovirus anti repeat=6
CCSc1nnc(-c2ccccc2N=Cc2c(C)[nH]n(-c3ccccc3)c2=O)c(=O)[nH]1,-4%,-2,-24,4.2,26,
CCOC(=O)C1=C(Nc2ccc(OC)cc2)OCC1=O,2%,.,.,-0.3,-7,
CCOC(=O)c1cc2occc2n1CC(=O)NCCOC,3%,1,-10,-1.1,1,
CCN(CC)C(=O)COc1c(-c2ccco2)oc2ccccc2c1=O,.,.,.,-4.7,-6,
Cc1ccc(S(=O)(=O)N2CCCc3cc(NC(=O)c4c(F)cccc4F)ccc32)cc1,.,.,.,1.1,7,
COc1ccc(S(=O)(=O)N(CC(=O)N2CCOCC2)c2ccc(F)cc2)cc1OC,.,.,.,1.5,5,
CCOc1cc(CNCCc2ccc(S(N)(=O)=O)cc2)cc(Cl)c1OCc1ccccc1,59%,-32,-31,7.7,96,
C=CCn1c(Cc2c(C)[nH]c3ccccc23)nnc1SCC(=O)NCc1ccc(F)cc1,-1%,-3,-16,-1.8,3,
CC(=O)N1CC(C)Sc2ccc(S(=O)(=O)NCc3ccc(Cl)cc3)cc21 (stereo not given),.,.,.,1.8,-11,
CCc1ccccc1NC(=O)CN(c1cccc(OC)c1)S(C)(=O)=O,-7%,3,-14,-4.6,-2,
O=C(CSc1nc(=O)n2ccccc2n1)N1CCCCCC1,.,.,.,-0.6,-4,
Cc1cccc(NC(=O)COC(=O)CCCC2=NS(=O)(=O)c3ccccc3N2)c1,.,.,.,-3.1,1,
COC(=O)c1cc(NC(=O)c2ccco2)ccc1N1CCOCC1,-3%,.,.,-0.1,1,
CCCCN1Cc2cc(C(=O)c3cc(OC)ccc3O)cnc2NC1=O,-10%,1,-16,3.4,-4,
COc1ccc(C2C(C(=O)Nc3ccccc3OC)=C(C)Nc3ncnn32)cc1 (stereo not given),-15%,3,-5,2.0,-1,Arbovirus anti repeat=0
CCc1nc2ccccc2n1Cc1ccc(F)cc1,4%,8,.,4.7,12,
COc1ccc(CCC(=O)OCC(=O)c2ccc(C)cc2)cc1,6%,11,-12,-2.0,10,
COc1ccc2cc(C3(C)NC(=O)N(CC(=O)NCCC4=CCCCC4)C3=O)ccc2c1 (stereo not given),4%,2,-18,-1.1,-4,
O=Cc1ccc(OCCCOc2cccc3cccnc23)cc1,.,.,.,3.6,58,
Cc1cc(C)n(Cc2cnc(N3CCOCC3)s2)n1,-1%,3,.,-1.2,-4,
O=c1[nH]n(-c2ccccc2)c(=O)c2ccccc12,.,1,-20,.,-5,
Cc1nc(C)c(C(=O)C2=C(O)C(=O)N(CCN(C)C)C2c2ccco2)s1 (stereo not given),-10%,.,.,-1.0,12,
C/C(=C\C(=O)Nc1cc(C)on1)c1ccccc1,20%,1,-15,1.0,-12,
CCOC(=O)N1CCN(C(=O)c2ccccc2CCc2ccccc2)CC1,-6%,1,-19,0.5,-16,
O=C1CC(c2ccccc2)=Nc2ccccc2N1,-4%,-6,-20,1.1,2,
Cc1ccc(C)c(NC(NC(=O)c2ccccn2)C(Cl)(Cl)Cl)c1 (stereo not given),6%,9,.,-2.0,11,
CSc1ccccc1NC(=O)CN(C)CC(=O)Nc1cccc(Br)c1,5%,4,.,5.0,1,
COc1cc(C)c(S(=O)(=O)N2CCN=C2c2ccccc2)cc1C,-3%,1,-17,1.2,-1,
Cc1cccc2cc(CN(Cc3ccc(F)cc3)C(=O)N(C)C)c3nnnn3c12,-5%,-8,-44,0.6,-6,
CCCOc1ccc(CNCCCOCC)cc1OC,5%,-1,.,-1.8,-9,
O=C(NC(=S)Nc1cccc(CO)c1)c1ccc(-c2ccccc2)cc1,17%,-11,-3,2.9,6,
N/C(CSc1ccc(Cl)cc1)=N\S(=O)(=O)c1ccc(Cl)cc1,6%,.,.,-0.2,-2,
CN1CCN(c2ccccc2NC(=O)COc2ccc(Br)cc2)CC1,1%,18,4,7.1,-16,
Nc1ccc2oc3ccc(N)cc3c(=O)c2c1,4%,-7,-35,1.4,47,
